MgrA DNA FP: alters Staphylococcus aureus MgrA binding to DNA; fluorescence polarization; inhibition, %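 (about 10 µg/mL by stock and volumes)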; hit rate 0.13% among 84,000; AID 602314;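 active = above 50% in either of two replicates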;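 also: 0% = protein plus DNA without compound and 100% = DNA alone without protein; higher means less MgrA bound to DNA so lower polarization; one replicate is shown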
Sa helicase inh: blocks Staphylococcus aureus DNA helicase. inhibition, %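 (tested at about 80 µM)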. purified S. aureus helicase, fluorescence unwinding assay; about half of the hits fall short of the stated cut. hit rate 0.05% among 120,000. AID 485395;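 active = both duplicates at 50% or more, or one of them with a favoured structure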;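 also: 0% = mean of negative control wells and 100% = mean of positive control wells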
* marks the source's active call; other numbers are inactive results; . = no result given; & = joins results of further samples. Not all compounds are listed, so the mix of outcomes need not match the whole.

Sample of the layout:
Values run as follows: MgrA DNA FP	Sa helicase inh
- COc1ccc(CC(NC(C)=O)C(=O)O)c(Cl)c1OC (configuration not stated)
 : -0.7	.
- COc1c(C=O)c(O)cc2c1C(=O)c1ccccc1C2=O
 : 4.8	.
- Cc1ccc(C)c(S(=O)(=O)n2nnc3ccccc32)c1
 : -5.6	11

Main list, previewed entries included:
Values run as follows: MgrA DNA FP	Sa helicase inh
- COc1ccc(CC(NC(C)=O)C(=O)O)c(Cl)c1OC (configuration not stated)
 : -0.7	.
- COc1c(C=O)c(O)cc2c1C(=O)c1ccccc1C2=O
 : 4.8	.
- Cc1ccc(C)c(S(=O)(=O)n2nnc3ccccc32)c1
 : -5.6	11
- O=C(CCC(=O)c1cccs1)Nc1ccc2c(c1)OCO2
 : .	1
- CC(C)(C)CC(C)(C)NC(=O)c1ccccc1
 : -1.6	10
- CCCCn1c(CNC(=O)c2ccco2)nnc1SC(C)C(=O)Nc1sc2c(c1C(=O)OCC)CCC2 (configuration not stated)
 : .	3
- O=C(O)CC(CC(=O)Oc1ccccc1N1CCCC1)c1ccccc1 (configuration not stated)
 : 9.4	.
- O=S(=O)(NCCN1CCOCC1)c1cccs1
 : .	2
- CC(Oc1cc(Cl)ccc1Cl)C(=O)N1CCc2ccccc21 (configuration not stated)
 : .	25
- O=C(NCc1ccccc1Cl)C(Cc1ccccc1)n1cccc1 (configuration not stated)
 : 1.5	20
- COc1ccc(Cl)cc1C(=O)CSc1cc(C)c2ccccc2n1
 : -1.2	-1
- CCCCNS(=O)(=O)c1cnn(CC)c1
 : -1.1	0
- Cc1noc(C)c1C(=O)O/N=C(\N)Cn1ccc(C(F)(F)F)n1
 : .	-15
- COC(=O)C(Cc1ccccc1)NC(=O)c1ccc(C#N)cc1 (configuration not stated)
 : .	6
- COc1ccc(C2Sc3ccccc3N2S(C)(=O)=O)cc1 (configuration not stated)
 : -2.0	-1
- Cc1ccc(-c2nc(C(=O)N(C)c3cc(C)ccc3C)c3n2CCCCC3)cc1
 : 1.4	0
- CS(=O)(=O)/C(C#N)=C/c1ccc(OCc2cc(F)cc(F)c2)cc1
 : -4.0	.
- CN(C)Cc1c(O)ccc2c(=O)c(-c3ccccc3Cl)coc12
 : .	10
- CN(CCC#N)C(=O)c1cc(-c2cccs2)nc2ccccc12
 : 2.2	-19
- CC1CN=C(c2cccn2Cc2ccc(F)cc2)O1 (configuration not stated)
 : .	15

Other structures follow:
Values run as follows: MgrA DNA FP	Sa helicase inh
- CC(C)C(=O)Nc1c(C(=O)Nc2ccc3c(c2)OCO3)oc2ccccc12
 : .	9
- O=C(Cn1cnc2c(nnn2-c2cccc(Cl)c2)c1=O)N1CCCc2ccccc21
 : -1.4	16
- CN1C(=O)S/C(=C\c2ccc(-c3ccc(C(=O)O)c(Cl)c3)o2)C1=O
 : 28	13
- O=C(Cn1nnc2ccccc21)N/N=C1\CC(c2ccccc2)Oc2ccccc21 (configuration not stated)
 : .	1
- COC(=O)c1c(N)oc2c(-c3ccc(C)cc3)c3c(C(=O)OC)c(N)oc3cc12
 : .	-8
- N/C(=N\C(=S)Nc1cc(Cl)ccc1Cl)c1ccccc1
 : 1.1	.
- O=C(NC1CCCCCCC1)c1ccc(NC2=NC3CS(=O)(=O)CC3S2)cc1 (configuration not stated)
 : .	-4
- CCOC(=O)c1ccc(Nc2nc(-c3cc4cc(Br)ccc4oc3=O)cs2)cc1
 : 3.0	.
- CC(C)Cn1c(=O)c2sccc2n2c(=S)sc(-c3ccccc3)c12
 : 10	-2
- O=C(CSc1ncnc2sc(-c3ccccc3)cc12)N1CCOCC1
 : .	-21
- CN(Cc1ccccc1)Cc1ccccc1F
 : -7.0	-4
- c1ccc2oc(NC3=NCN(CCCN4CCOCC4)CN3)nc2c1
 : -0.3	7
- Cc1ccccc1NC(=O)CCC(=O)Nc1ccccc1C
 : 0.5	0
- CCCNS(=O)(=O)c1ccc(OCC(=O)N2CCCCC2)cc1
 : -4.0	-3
- CCC(C)C(=O)O[C@H]1C[C@H](O)C=C2C=C[C@H](C)[C@H](CC[C@@H](O)C[C@@H](O)CC(=O)O)C21 (some centres not stated)
 : 0.2	.
- c1ccc(-c2csc3ncnc(N4CCCC4)c23)cc1
 : .	-20
- COc1ccc2c(Cl)c(C(=O)Oc3ccccc3Cl)sc2c1
 : -4.0	15
- CCOc1ccccc1CNC(C)(C)CO
 : .	12
- O=C(/C=C/c1ccco1)Nc1ccc2c(c1)C(=O)N(c1ccccc1)C2=O
 : 0.2	5
- C=C1c2ccccc2N=C(SCC(=O)Nc2ccc(F)cc2F)N1C
 : .	-6

Continued, starting with the last two of the part before.
Values run as follows: MgrA DNA FP	Sa helicase inh
- O=C(/C=C/c1ccco1)Nc1ccc2c(c1)C(=O)N(c1ccccc1)C2=O
 : 0.2	5
- C=C1c2ccccc2N=C(SCC(=O)Nc2ccc(F)cc2F)N1C
 : .	-6
- CCc1cccc(NC(=S)N(CCN(C)C)C2CCN(C(C)C)CC2)c1
 : .	3
- Cc1ccccc1Cn1c(CNC(=O)C(C)(C)C)nc2ccccc21
 : .	-15
- CC(C)Cc1cc(C(=O)Nc2cccnc2)no1
 : -1.0	7
- CCCCn1nc(C(=O)N/N=C/c2ccccc2OCC(=O)O)c2ccccc2c1=O
 : .	-15
- COC(=O)C1=C(N)OC2=C(C(=O)CC(C)(C)C2)C1c1cccc(Br)c1 (configuration not stated)
 : 0.4	.
- Cc1c(O)ccc2c(=O)c(-c3ccc4ccccc4n3)coc12
 : 0.2	-19
- Cc1ccc(-c2cc(Cc3ccccc3)c(=O)[nH]n2)cc1
 : -0.8	.
- CCCCC(=O)NC1=C(C(=O)OC)SCC1
 : .	17
- CC(=O)Nc1ccc(F)cc1NC=C(C#N)C#N
 : .	-9
- NC(=O)Nc1ccc(F)cc1F
 : .	-30
- CC(C)NC(=O)Cn1cnc2ccccc2c1=O
 : .	-1
- Cc1cc(-c2csc(-c3ccc(O)cc3)n2)c(C)n1C1CC1
 : .	1
- COc1ccc(OC)c(NC(=O)COc2ccccc2)c1
 : -1.8	-7
- COc1cc2c(cc1OC)-c1cc3ccc(OC)c(OC)c3c[n+]1CC2
 : 0.9&0.1	.
- Cc1nc2cc(-c3ccccc3)nn2c(C)c1CCC(=O)NCc1ccccc1
 : .	-18
- Cc1cc(C)c(C#N)c(SCCN2C(=O)c3ccccc3C2=O)n1
 : .	-10
- Cc1cc(C(=O)O/N=C(\N)c2ccccc2)nn1C(C)(C)C
 : .	-28
- CSc1c(C#N)c(N)nc(SCC(=O)c2ccccc2)c1C#N
 : -1.4	.
- O=C(N/N=C1/CC(c2ccccc2)Oc2ccccc21)C1CC1 (configuration not stated)
 : .	-1
- Cc1cc2nc(SCC(=O)NN)[nH]c2cc1C
 : -1.1	9

Next part
Values run as follows: MgrA DNA FP	Sa helicase inh
- O=C1CC2CCC(CN1)N2CC(=O)N1c2ccccc2Sc2ccc(C(F)(F)F)cc21 (configuration not stated)
 : 17	9
- c1ccc2c(c1)nc(Nc1ccc(N3CCCCC3)cc1)c1nncn12
 : .	-4
- CCN(c1cccc(C)c1)S(=O)(=O)c1ccc2c(c1)SC(C)C(=O)N2 (configuration not stated)
 : -0.7	13
- FC(F)(F)c1cc(-c2nnc(N3CCOCC3)o2)cc(C(F)(F)F)c1
 : -3.4	.
- CCOC(=O)c1nc2c(o1)NC(N)=C(C#N)C2c1ccc(Cl)cc1 (configuration not stated)
 : 0.1	11
- CC(=O)Nc1cccc(NC(=O)CCn2cnc3cc(C)c(C)cc32)c1
 : 0.9	-2
- CN1CCN(S(=O)(=O)c2ccc(SCC(=O)NC3CCCCC3)cc2)CC1
 : 3.1	9
- CN(C)C(CNC(=O)c1n[nH]c2ccccc12)c1cccs1 (configuration not stated)
 : .	-10
- Cc1cc(C)n(C(C)CC(=O)N2CCN(c3ccc(F)cc3)CC2)n1 (configuration not stated)
 : .	9
- CC(C)=CC(=O)Nc1sc2c(c1C#N)CCCC2
 : -1.8	10
- CN1C(=O)c2cccc3cccc(c23)[S+]1c1ccccc1C(=O)O (configuration not stated)
 : -2.0&-0.7	.
- CCNc1nc(NCC)nc(NNC(=S)Nc2ccc(OCC)cc2)n1
 : .	5
- CC1=C(C(=O)OCCOc2ccccc2)C(c2cccc(O)c2)C2=C(CC(c3ccccc3)CC2=O)N1 (configuration not stated)
 : -1.2	.
- CCc1nnc(NC(=O)/C=C/c2cccs2)s1
 : .	2
- O=c1[nH]c2ccccc2nc1-c1ccc(Cl)cc1
 : -0.8	.
- COc1cccc(Cc2nnc(-c3c(-c4ccccc4)noc3C)o2)c1
 : -0.9	.
- COc1ccc(C(=O)N=C2NC(=O)C(C)S2)cc1 (configuration not stated)
 : .	7
- Cc1cc(N2CCC(C(=O)N3CCOCC3)CC2)n2nc(C)c(-c3ccc(Cl)cc3)c2n1
 : -0.5	13
- CC1(C)Oc2ccc3ccc(=O)oc3c2/C(=C/NC23CN4CN(CN(C4)C2)C3)C1=O
 : .	30
- O=S(=O)(c1ccccc1)N1CN(c2cccc(C(F)(F)F)c2)c2nc3ccccc3nc21
 : .	5

One compound at a time (already shown). Order of screens: MgrA DNA FP, Sa helicase inh
`COc1ccc(C(=O)N=C2NC(=O)C(C)S2)cc1` (configuration not stated) is entered as ., 7
`CC1=C(C(=O)OCCOc2ccccc2)C(c2cccc(O)c2)C2=C(CC(c3ccccc3)CC2=O)N1` (configuration not stated) is entered as -1.2, .
`O=C1CC2CCC(CN1)N2CC(=O)N1c2ccccc2Sc2ccc(C(F)(F)F)cc21` (configuration not stated) is entered as 17, 9
`CCNc1nc(NCC)nc(NNC(=S)Nc2ccc(OCC)cc2)n1` is entered as ., 5
`CCN(c1cccc(C)c1)S(=O)(=O)c1ccc2c(c1)SC(C)C(=O)N2` (configuration not stated) is entered as -0.7, 13

Remaining list, next part
Values run as follows: MgrA DNA FP	Sa helicase inh
- Cc1nc(Nc2ccccc2)sc1C(=O)Nc1ccccc1
 : .	-8
- COC(=O)c1ccc(OC(=O)CCN2C(=O)c3ccccc3C2=O)cc1
 : 0.1	8
- CCc1ccc(NC(=O)CNc2ccc(C#N)cc2)cc1
 : .	7
- CCn1c(N)c(C(=O)NC2CCCC2)sc1=S
 : .	6
- CN(C)CCOC(=O)C1(c2ccccc2)CCCC1
 : -3.2	4
- CCOc1ccccc1CN1CCC(N2CCCCC2)CC1
 : .	-15
- Cc1nc(S(=O)(=O)N2CCN(C3c4ccccc4-c4ccccc43)CC2)cn1C
 : 5.2	.
- Nc1nnc(SCC(=O)OCC(=O)N2CCCCC2)s1
 : .	2
- Cc1cc(C)cc(N(CC(=O)O)S(=O)(=O)c2c(C)n[nH]c2C)c1
 : 2.4	15
- Cc1ccc(Cn2c(=O)n(Cc3ccccc3)c(=O)c3cccnc32)c(C)c1
 : .	-23
- Cn1c(Cc2cccs2)nnc1SCc1cc(=O)n2ccsc2n1
 : .	-3
- CCOC(=O)c1sc(N)c(C(=O)OCC)c1CNC(C)(C)C
 : .	-6
- COc1ccc(/C=N/NC(=O)c2cnn(-c3ccc([N+](=O)[O-])cc3)c2C(F)(F)F)cc1
 : -2.5	.
- O=C(Cn1ccn(-c2ccccc2)c(=O)c1=O)NCCc1ccccc1
 : -0.1	4
- CCC1CCCCN1C(=O)CSc1nc2c(cnn2-c2ccc(Cl)cc2)c(=O)[nH]1 (configuration not stated)
 : .	-14
- CCN(C(=O)CSCc1ccco1)C1CCCCC1
 : 0.6	-2
- CCC1CCCCN1C(=O)Nc1ccccc1 (configuration not stated)
 : 2.5	3
- Cc1nn(-c2ccccc2Cl)c(Cl)c1/C=N/N=c1\sc2ccccc2n1C
 : .	0
- Cc1cc(NC(=O)COc2ccc(Cl)cc2Cl)n(CCC#N)n1
 : -0.4	-14
- Cn1c(C(=O)N2CCCC(C(=O)O)C2)cc2sccc21 (configuration not stated)
 : .	19

(more compounds)
Values run as follows: MgrA DNA FP	Sa helicase inh
- NC(=O)c1cnn2c(C(F)(F)F)cc(-c3ccc(F)cc3)nc12
 : -2.9	4
- N#Cc1ccc(-c2ccc(F)cc2F)o1
 : -0.9	.
- O=C(NCCc1cn2c(n1)SCC2)c1ccc(-c2ccccc2)cc1
 : .	6
- O=C(CNC(=O)NC1CCCCC1)NC1CC1
 : .	6
- O=S(=O)(Cc1ccccc1)Nc1ccc(S(=O)(=O)N2CCCCC2)cc1
 : -2.3	6
- O=C(Cn1c(=O)c2cccn2c2ccc(F)cc21)N1CCN(C(=O)c2ccco2)CC1
 : .	4
- Cc1ccc2[nH]c3c(c2c1)CCCC3N1CCc2ccccc21 (configuration not stated)
 : -1.0	3
- CCCS(=O)(=O)N1CCN(S(=O)(=O)CCC)CC1
 : 0.9	-14
- O=C(NCCc1ccco1)c1cn(-c2ccc(F)cc2)nn1
 : .	-18
- COc1ccc(-c2cc(C(=O)N3CCCCC3)no2)cc1
 : .	8
- Cc1c(C)n(CC(O)CN2CCN(CCO)CC2)c2ccccc12 (configuration not stated)
 : .	22
- CCC1CCCCN1C(=O)Cn1c(C(=O)OC)cc2sc(Cl)cc21 (configuration not stated)
 : -1.1	15
- Nc1nnc(SCc2nc3scc(-c4ccc(Cl)cc4)c3c(=O)[nH]2)s1
 : .	-9
- CN(C)/C=C(\C(=S)c1ccccc1)c1ccccc1
 : -6.9	.
- CN(Cc1ccccc1)C(=O)COC(=O)c1cnc(Cl)c(Cl)c1
 : -0.5	-3
- C/C(=N\OCC(=O)N1c2ccccc2CC1C)c1cc2ccccc2o1 (configuration not stated)
 : .	14
- O=C(O)CCC(=O)c1ccc2c(c1)OCCCO2
 : -2.3	.
- CC(C)(C)C1CCC(OC(=O)CCC(=O)O)CC1 (configuration not stated)
 : .	13
- CCCCN(Cc1ccccc1)Cc1ccccc1O
 : 0.6	24
- COc1cc(C(=O)OCc2nnc(-c3ccc(Cl)cc3)o2)cc(CN2C(=O)c3ccccc3C2=O)c1OC
 : .	-11
- Nc1nc2ccc(NC(=O)C3CCC(C(=O)O)CC3)cc2s1 (configuration not stated)
 : -12	9
